D2 PAM: potentiates the human D2 dopamine receptor allosterically; P14416; DiscoveRx D2 beta-arrestin cells, luminescence, 90 min; 100% = 57 uM dopamine signal; potentiation, % (test concentration not listed); 360,000 tested, 0.23% active; AID 624464; active = potentiation of 50% or more; inconclusive = 30% to 50%; inactive = 30% or less;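 note: compound concentration not given in the record; tested on top of an EC20 dose of dopamine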
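PathHunter beta-arrestin assay in DiscoveRx D2 cells. Compounds were added with an EC20 of dopamine (50 nM final) for 90 min at 37 deg C. Luminescence was read 1 h after detection reagent, with 57 uM dopamine as the EC100 control.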
CtBP-E1A blk: CtBP/E1A binding inhibition; AlphaScreen GST-E1A/His-CtBP binding, 1536-well; hits give low values; control for the full effect not named in the record; AID 651724; 340,000 tested, 0.49% active; activity change, % (test concentration not listed); in the data active means activity change below about -65%; inconclusive means about -30% to -65%; inactive means above about -30%; note: % is set by controls: 0 for no effect and ±100 for the full control effect; compound concentration not given in the record
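Steps: dispense buffer (Tris pH 8.0, NaCl 300 mM, TCEP 1 mM, BSA, Tween 20); add 5X protein mix (GST-E1A, His-CtBP, 125 nM each); pin 23 nL compound; 2 h at 37 °C, dark; add 5X beads (50 ug/mL); 1 h; read.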
D2 agonist: agonists of human D2 dopamine receptor (beta-arrestin) | P14416 | DiscoveRx PathHunter D2 beta-arrestin, luminescence, 90 min; 100% = 57 uM dopamine signal | activation, % (test concentration not listed) | 360,000 tested, 0.084% active; in the data active = activation above about 40%; inconclusive = about 15% to 40%; inactive = below about 15%; note: compound concentration not given in the record; the text of the record calls up to 30% inactive
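DiscoveRx PathHunter D2 beta-arrestin cells (2,100/well) attached overnight, then compound-stimulated 90 min at 37 C in HBSS/10 mM HEPES/0.1% Tween-20 buffer; beta-galactosidase complementation read by luminescence after 1 h at ambient temperature. Dopamine 57 uM final (EC100) as control.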
Six1-Eya2 blk: inhibitors of human Six1/Eya2 interaction | AlphaScreen GST-Six1/His-Eya2 binding, biochemical; hits give low values; control for the full effect not named in the record | 360,000 tested, 0.56% active | activity change, % (test concentration not listed); in the data active = activity change below about -65%; inconclusive = about -30% to -65%; inactive = above about -30%; note: % is set by controls: 0 for no effect and ±100 for the full control effect; compound concentration not given in the record
Target sequence (O00167 whole entry, looked up): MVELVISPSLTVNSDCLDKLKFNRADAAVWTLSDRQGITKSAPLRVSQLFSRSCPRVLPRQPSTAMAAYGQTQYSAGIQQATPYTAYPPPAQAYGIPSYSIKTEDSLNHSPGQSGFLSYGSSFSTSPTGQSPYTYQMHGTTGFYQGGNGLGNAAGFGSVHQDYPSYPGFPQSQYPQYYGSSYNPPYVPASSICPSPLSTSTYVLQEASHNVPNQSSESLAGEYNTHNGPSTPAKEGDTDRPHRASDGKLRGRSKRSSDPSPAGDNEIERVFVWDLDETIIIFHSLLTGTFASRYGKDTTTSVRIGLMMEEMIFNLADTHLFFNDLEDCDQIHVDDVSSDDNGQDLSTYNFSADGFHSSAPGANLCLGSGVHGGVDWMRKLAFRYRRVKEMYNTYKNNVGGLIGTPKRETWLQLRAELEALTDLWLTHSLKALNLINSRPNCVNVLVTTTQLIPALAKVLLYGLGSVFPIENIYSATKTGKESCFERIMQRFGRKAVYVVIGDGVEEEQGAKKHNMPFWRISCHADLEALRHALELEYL
Target sequence (Q15475 whole entry, looked up): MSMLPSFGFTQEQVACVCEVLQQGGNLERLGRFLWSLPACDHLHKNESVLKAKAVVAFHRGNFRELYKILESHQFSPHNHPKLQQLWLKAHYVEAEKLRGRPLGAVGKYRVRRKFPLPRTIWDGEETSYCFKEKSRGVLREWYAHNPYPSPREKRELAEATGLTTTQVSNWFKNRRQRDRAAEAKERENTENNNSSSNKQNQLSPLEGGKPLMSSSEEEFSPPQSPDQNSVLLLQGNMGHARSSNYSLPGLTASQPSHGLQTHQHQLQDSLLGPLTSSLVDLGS
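GST-Six1 + His-Eya2 (5X stock: 250/500 nM); Tris pH 8.0, 300 mM NaCl, 0.05% BSA, 0.02% Tween 20; GSH donor/Ni acceptor beads; 1 h 37 °C dark; AlphaScreen readout.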
gsp antagonist: antagonizes gsp, the McCune-Albright syndrome mutation | AID 624288 | gsp-mutant cells, cAMP HTRF, 30 min; control for the full effect not named in the record | 340,000 tested, 0.4% active | Potency, µM (titrated, usually from 76.9 µM), inactives show at the top dose activity change, negative = inhibition, most hits filed as inhibitors; active = falling curve of any shape with a large fitted effect; inconclusive = falling curve, mostly with a smaller effect; inactive = flat or rising curve; cell line not stated here;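 note: intracellular cAMP measured with PDE inhibitor Ro 20-1724 present during compound exposure; potency is the fitted concentration of half-maximal effect; % is set by controls: 0 for no effect and ±100 for the full control effect; nearly all actives have a fitted effect of over 65% in size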
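G418-selected cells were plated in DMEM/10% FBS for 16-24 h at 37C, then treated with compounds plus the PDE inhibitor […] (300 uM solution added) for 30 min at 37C. Intracellular cAMP was measured by HTRF after 30 min lysis at room temperature.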
gsp ag: activates gsp, the McCune-Albright syndrome mutation | gsp mutant cells, cAMP HTRF, 30 min; control for the full effect not named in the record | Potency, µM (top dose mostly 76.9 µM), inactives show at the top dose activation (cAMP increase), most hits filed as activators | 340,000 tested, 0.13% active | AID 624287; active = well fitted activation curve with a large enough effect; inconclusive = small, poorly fitted or top-dose-only effect, or another doubt; inactive = no such curve, though single readings can be large or run the other way; cell line not stated here;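 note: phosphodiesterase inhibitor Ro 20-1724 added with compounds to block cAMP breakdown; potency is the fitted concentration of half-maximal effect; nearly all actives have a fitted effect of over 60% in size; about a fifth of the inactives were tested at one dose only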
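Cells in DMEM/10% FBS with G418 were pretreated with compounds in DMSO plus […] (300 uM stock) for 30 min at 37C. cAMP was measured by HTRF (cAMP-d2 plus anti-cAMP antibody-K) after 30 min at room temperature.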
An asterisk follows results filed as active; u = inconclusive; x = not tested or not shown; [ ] = another dose, or the depositor's remark. Outcome played no part in choosing rows; about 1.4% have a hit in one of these screens.

SMILES | D2 PAM | CtBP-E1A blk | D2 agonist | Six1-Eya2 blk | gsp antagonist | gsp ag
CCNc1nc(NCC)n2c(SCC(=O)Nc3ccc(F)cc3)nnc2n1 | 0.2 | -0.4 | 6.3 | -13.8 | -6.5% | -5.4%[15.4 µM]
CC(OC(=O)[C@H](C)N=C1NS(=O)(=O)c2ccccc21)C(=O)Nc1ccc(F)c(F)c1F (some centres undefined) | -11.8 | -4.2 | -0.8 | 0.5 | x | -19.9%
COc1ccc(S(=O)(=O)NC(=O)C2(C)CCN2C(=O)c2c(C)noc2C)cc1 (centres undefined) | 1.7 | 3.2 | -3.5 | 0.8 | x | x
CC1(C)Cc2c(cnn2-c2ccc(F)cc2)C(NC(=O)C(C)(C)O)C1 (centres undefined) | -6.7 | 1.0 | -4.0 | 0.4 | 4.0% | 0.9%
O=C(NCCOc1ccccc1Cl)c1cc(F)c(F)cc1Cl | 0.5 | 3.4 | -0.6 | 12.6 | 1.5% | -29.9%
O=S(=O)(NCc1nnc2ccccn12)c1ccc(F)cc1 | -31.0 | -4.3 | -2.5 | 9.1 | 9.8% | -10.8%[15.4 µM]
CCn1ncc(/C=C/C(=O)Nc2c(C)nn(CC)c2C)c1C | -1.1 | 3.7 | 3.1 | -0.8 | -5.4% | -36.2%
CCN(CC)C1CCN(c2nc3nonc3nc2NCCOC)C1 (centres undefined) | 1.4 | 7.4 | 1.9 | 3.1 | 6.4% | -3.4%
COC(=O)c1cccnc1NC(=S)NNC(=O)c1ccncc1 | -36.8 | 6.9 | -3.0 | 2.3 | 5.5% | u
CC(c1ccccc1)C1CC(=O)N(Cc2ccco2)C1=O (centres undefined) | 11.2 | 0.0 | 0.2 | -4.3 | -0.9% | -2.7%
O=C(c1ccccc1)N1CCN(Cc2ccccc2)CC1 | -28.2 | 9.6 | 1.0 | 8.1 | 0.9% | -54.7%[inhibitor]
O=C(NC(Nc1ncc(S(=O)(=O)c2ccc([N+](=O)[O-])cc2)s1)(C(F)(F)F)C(F)(F)F)c1ccc(Cl)cc1 | 27.0 | -1.5 | -3.3 | -13.9 | 35.5µM* | 4.1%[15.4 µM]
O=C(CCN1C(=O)C2C3C=CC(C3)C2C1=O)Nc1ccc2c(c1)OCO2 (centres undefined) | -11.0 | 10.9 | -2.1 | 0.4 | 1.1% | -31.9%[inhibitor]
Cc1cccc(-c2nc(C#N)c(NCC3CCCO3)o2)c1 (centres undefined) | -6.1 | -9.6 | -2.5 | -7.3 | -5.5% | -1.3%[15.4 µM]
COCC(C)n1c(C)cc(C(=O)COC(=O)c2c(NC(C)=O)sc(C)c2C)c1C (centres undefined) | 1.4 | 0.7 | -2.9 | 3.6 | 14.5% | 4.3%
CC(=O)c1ccc(-c2cnc3c(NC=O)cc(-c4cccc(NS(C)(=O)=O)c4)cn23)cc1 | 11.3 | u | 11.3 | u | x | x
O=C(COC(=O)c1ccc([N+](=O)[O-])o1)Nc1ccc(F)cc1 | 12.9 | x | 2.1 | 3.6 | 1.5% | -39.3%
Cc1cccn2c(=O)c3cc(C(=O)NCc4ccc(F)cc4)c(=N)n(CC4CCCO4)c3nc12 (centres undefined) | -14.0 | x | -10.0 | 8.0 | -10.5% | u
CCOc1ccc(-n2c(C)cc(/C=N/NC(=O)C(N)=O)c2C)cc1 | 2.1 | -14.6 | -0.1 | 5.1 | -30.8% | 15.0%[15.4 µM]
C/C(=N\NC(=O)c1cc(-c2ccncc2)nc2ccccc12)c1ccc(N2CCOCC2)cc1 | -7.0 | x | 1.5 | -4.3 | 31.1%[activator] | 2.6%
Cc1ccccc1C(=O)N[C@H](C(=O)OCC(=O)NC1CC1)C(C)C | -4.4 | -2.0 | -3.0 | 6.1 | 7.9% | -2.0%
Cn1c(N)c(C(=O)CSc2ncn[nH]2)c(=O)n(C)c1=O | -2.9 | -18.9 | -0.3 | -18.8 | 4.7% | -15.3%[15.4 µM]
CCCCC(=O)N(C)c1c(C)nc2ccc(C(=O)NCc3ccccc3OC)cn12 | -12.2 | 3.7 | -2.4 | 5.3 | x | x
CC(c1ccccc1)N1CCn2c(nc3cc(NC(=O)c4cccs4)ccc32)C1 (centres undefined) | -1.1 | -6.2 | -0.3 | u | -15.7% | 1.2%
Cc1cccc(C)c1NC(=O)C(c1ccccc1OC(F)(F)F)N1CCN(C/C=C/c2ccccc2)CC1 (centres undefined) | -13.0 | -18.2 | -4.1 | -16.0 | x | x
Cn1cc(C(=O)c2ccc(Cl)cc2Cl)cc1C(=O)N/N=C(\N)COc1ccc(Cl)cc1Cl | -8.0 | -12.0 | -5.4 | -11.0 | -0.9% | -40.7%[inhibitor]
O=C(c1ccc(NS(=O)(=O)c2ccccc2)cc1)N1CCN(Cc2ccc3c(c2)OCO3)CC1 | -8.5 | -5.8 | 6.2 | 1.2 | -4.8% | u
COc1cc(OC)c2c(-c3ccccc3)cc(=O)oc2c1C(CC(=O)N1CCN(c2ccccc2)CC1)c1ccc(N(C)C)cc1 (centres undefined) | -3.3 | -11.8 | 1.8 | -22.6 | -11.2% | x
Cc1nnc(-c2ccc(Oc3ccc(Cl)cc3)c([N+](=O)[O-])c2)o1 | 12.5 | -11.8 | 5.9 | -7.4 | u | u
Cc1noc(C)c1S(=O)(=O)N1CCC(C(=O)NC2CCN(Cc3ccccc3)CC2)CC1 | -22.4 | 9.7 | -0.5 | -1.0 | -2.6% | -12.0%
CC(C)c1nnc(NC(=O)c2cccs2)s1 | -4.0 | 4.1 | -3.6 | 8.2 | -3.5% | u
N#Cc1cccc(NC(=O)CCNC(=O)c2ccccc2Cl)c1 | -7.8 | x | -1.4 | 8.3 | 2.1% | 8.6%
O=C(Nc1nnc(-c2ccc(F)cc2)s1)Nc1ccccc1F | -2.8 | 8.5 | -3.4 | 2.6 | 1.0% | -0.7%
O=C(CN1C(=O)NC2(CCCCC2)C1=O)Nc1ccc2[nH]c(=O)[nH]c2c1 | -2.4 | x | -4.3 | -8.6 | 2.8% | u
CCS(=O)c1ccccc1C(=O)OC(C)C(=O)Nc1ccc(S(=O)(=O)N2CCCC2)cc1 (centres undefined) | -16.7 | 1.3 | 0.9 | 0.7 | -13.2% | -5.9%
CCOc1ccc(N(C)C(=O)CCc2nnc3ccc(N4CCCC4)nn23)cc1 | -0.8 | 3.5 | 0.6 | -0.4 | 12.5% | 21.4%
Cc1nn(-c2ccccc2)c2[nH]c(C(F)(F)F)cc(=O)c12 | 3.1 | -0.5 | -3.0 | -1.2 | u | -3.6%
COc1ccc(C(C)NC(=O)C2C(=O)NC3(C)CC2c2ccccc2O3)cc1 (centres undefined) | -21.1 | -0.8 | -1.5 | 7.1 | -8.9% | -25.0%
Cc1cc(=O)n(-c2ccccc2Cl)[nH]1 | -13.4 | -17.9 | -4.1 | -17.7 | 11.8% | 23.0%
CS(=O)(=O)N1N=C(c2ccc(Br)cc2)CC1c1cccs1 (centres undefined) | -6.4 | 4.4 | -3.1 | -0.6 | -5.7% | 11.7%
O=C(c1cnn2c(C(F)(F)F)cc(-c3ccc(F)cc3)nc12)N1CCc2ccccc2C1 | -15.9 | 5.4 | -8.0 | -2.5 | -25.0% | 0.1%
Fc1cccc(Cl)c1-c1nnc2ccc3ccccc3n12 | -12.9 | 1.3 | -9.9 | 2.0 | 4.2% | 0.8%
c1ccc(SCc2nc(-c3ccncc3)no2)cc1 | -11.2 | 5.9 | -0.7 | 7.1 | 1.4% | -5.0%
CC[n+]1ccccc1/C=C1\Sc2ccc(C)cc2N1C | -9.7 | 0.0 | -2.6 | 17.1 | u | 29.6%
Clc1ccc(Cl)c(OCCCCN2CCNCC2)c1 | -11.8 | -0.2 | -2.6 | -1.4 | 18.4% | -18.6%
COc1ccc(NC(=O)CSc2nc3c(c(=O)n2-c2ccc(F)cc2)SCC3)cc1 | -6.7 | -1.2 | -3.2 | -1.6 | -0.4% | -39.8%[inhibitor]
NS(=O)(=O)c1ccc2nc(NC(=O)c3ccncc3)sc2c1 | -2.8 | -0.5 | 4.3 | 1.3 | -5.5% | 15.5%
O=C(CN1C(=O)/C(=C/c2ccccc2)SC1=S)Nc1cccnc1 | -7.3 | x | -1.3 | -15.0 | u | 1.7%
Cc1n[nH]c(=O)c2c(NC(=O)CSc3nc4ccccc4c(=O)n3-c3ccc(OC(F)F)cc3)oc(C)c12 | -24.9 | -5.4 | -9.7 | -7.0 | -1.4% | -11.8%
CCCCn1c(N)c(N(CCC(C)C)C(=O)CCN2C(=O)C3CC=CCC3C2=O)c(=O)[nH]c1=O (centres undefined) | 3.7 | 0.9 | -2.1 | -2.7 | 2.2% | 5.1%[15.4 µM]
COc1ccc(-n2c(=O)c(CCC(=O)N(C)Cc3cccs3)nc3ccccc32)cc1 | -5.1 | -21.5 | 0.2 | -9.4 | -15.3% | -4.5%
Cc1cccc(NC(=O)CSc2cccc3cccnc23)c1 | -5.1 | x | 6.4 | -81.3* | 3.1% | 11.7%
COCCn1c(SCC(=O)N2CCCCC2)nc2ccccc2c1=O | -5.2 | 3.8 | -3.0 | 1.3 | -17.1% | -7.4%
O=C(CNS(=O)(=O)c1c(Cl)cccc1Cl)OCc1csc(-c2ccccc2)n1 | -6.2 | 2.5 | -1.3 | 3.6 | -11.0% | -4.7%
CCN(CC)C(=O)[C@H]1CC(CC(=O)NCCc2ccccn2)C(=O)N2CCc3c([nH]c4ccccc34)[C@]12C (some centres undefined) | x | -0.3 | -2.5 | 3.8 | 9.1% | x
O=[N+]([O-])c1ccc(CN2CCN(c3ccc(F)cc3)CC2)o1 | -3.0 | -1.9 | -5.4 | 0.7 | 7.7% | -15.8%
O=c1c(-c2ccc(Cl)cc2)coc2c(CN3CCCCC3)c(O)ccc12 | 2.0 | x | -3.2 | -2.1 | 0.0% | -19.6%
COc1cccc(N2CC(=O)N(c3cccc(OC)c3)CC2=O)c1 | -1.9 | 5.2 | -4.6 | 26.2 | 15.2% | u
